Screening results from PubChem BioAssay.
Ecoli rRNA inh – reduced GFP signal of wild-type E. coli, primary screen, bacterial rRNA inhibitor project, GFP/RFP fluorescence, OD600, single point. E. coli WT GFP vs humanized-ribosome RFP mutants, 24 h; stronger effect = lower value; DMSO median 0, no signal -100. GFP signal change (wild-type ribosome), % (no concentration beside the values). hit rate 1.6% among 350,000. AID 720706, 2013;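 active means significant combined selectivity score with lowered wild-type GFP, culture density cut under 30%, mutant RFP and density less affected; inactive means any of these conditions unmet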; further: one replicate is shown; some compounds called inactive have numbers as strong as hits
AF4-AF9 inh – inhibitors of AF4 peptide binding to AF9, primary screen, biochemical, AlphaScreen, biotin-AF4 peptide, FLAG-AF9, single point; Protein AF-9 (Homo sapiens), P42568; hit rate 0.47% among 350,000; inhibition, % at 10 µM;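 active means every replicate reaching a set inhibition limit, whatever the replicate mean, cut at about 25% in these data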;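 further: 0% = plate neutral control median and 100% = total signal loss; the record names both 10 and 1 µM as test concentration; the first replicate is given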
Target sequence (P42568 whole entry, looked up): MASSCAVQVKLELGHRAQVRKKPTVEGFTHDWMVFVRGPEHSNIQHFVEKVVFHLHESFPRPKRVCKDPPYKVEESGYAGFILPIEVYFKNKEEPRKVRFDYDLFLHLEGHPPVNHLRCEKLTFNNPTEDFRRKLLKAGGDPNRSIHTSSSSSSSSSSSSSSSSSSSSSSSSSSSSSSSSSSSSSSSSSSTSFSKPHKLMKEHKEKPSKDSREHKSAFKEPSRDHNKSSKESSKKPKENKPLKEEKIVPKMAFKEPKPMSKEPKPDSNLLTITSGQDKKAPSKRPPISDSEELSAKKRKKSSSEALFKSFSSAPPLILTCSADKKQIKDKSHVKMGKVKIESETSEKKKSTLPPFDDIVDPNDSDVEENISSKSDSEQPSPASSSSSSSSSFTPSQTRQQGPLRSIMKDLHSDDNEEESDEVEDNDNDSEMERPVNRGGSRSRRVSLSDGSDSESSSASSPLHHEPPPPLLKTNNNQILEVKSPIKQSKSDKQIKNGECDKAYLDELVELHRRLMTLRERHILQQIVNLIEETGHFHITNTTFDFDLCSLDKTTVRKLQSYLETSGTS
Ecoli rRNA inh OD600 – recorded beside Ecoli rRNA inh, whose call it bears; OD600 change, %; measured here: OD600 growth;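 optical density of the mix in the first replicate; 0 = DMSO median and -100 = no signal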
Ecoli rRNA inh RFP – second read-out of Ecoli rRNA inh, no call of its own (marks repeat the call); RFP signal change, %; measured here: RFP humanized mutant strains;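 first replicate; 0 = DMSO median and -100 = no signal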
* marks the source's active call; other numbers are inactive results; & = joins results of further samples. Not all compounds are listed; rates above refer to the full screens.

Keys: A = Ecoli rRNA inh; B = Ecoli rRNA inh OD600; C = Ecoli rRNA inh RFP; D = AF4-AF9 inh
1	O=S(=O)(c1ccc(F)cc1)N1[C@@H]2CNC[C@H]1C2c1ccc(-c2ccccc2)cc1 (some centres not stated)
  A: -57&-2; B: -79&-9; C: -11&3.9; D: -9.2&-10
2	Cc1noc(C)c1NC(=O)N(C)C[C@H]1Oc2ccc(NC(=O)C3CCCCC3)cc2CC(=O)N([C@H](C)CO)C[C@H]1C
  A: 2; B: 2; C: -2.6; D: -2.3
3	O=C(O)C[C@H]1CC[C@H](NC(=O)CCN2CCCCC2)[C@H](CO)O1
  A: 2; B: 3; C: -1.2; D: -0.2
4	O=C(c1ccc2c(c1)OCO2)N1CC(=O)N2[C@H](CO)[C@@H](c3ccc(C#CC4CCCC4)cc3)[C@@H]2C1
  A: 2; B: -25; C: 23; D: 3.9
5	COc1ccccc1CN1[C@@H]2CNC[C@H]1C2c1ccc(-c2ccncc2)cc1 (some centres not stated)
  A: 7; B: 0; C: 0.3; D: 1.3
6	S=C(Nc1ccccc1)N1CCN(c2ccccc2)CC1
  A: 4; B: -2; C: 0.1; D: 8.4
7	N#C[C@@H]1[C@@H](c2ccccc2C2=CCCC2)[C@H](CO)N1C(=O)NC1CCCCC1
  A: -21; B: -55; C: -0.5; D: -0.7
8	C/C=C/c1ccc(C2[C@H]3CNC[C@@H]2N3Cc2cc(-c3ccccc3)on2)cc1 (some centres not stated)
  A: -60&-11; B: -71&-48; C: -16&25; D: 8.7&2.4
9	CC(C)CC#Cc1ccc2c(c1)O[C@@H](CN(C)Cc1ccc3c(c1)OCO3)[C@H](C)CN([C@H](C)CO)S2(=O)=O
  A: 3; B: 13; C: -0.4; D: 1.9
10	O=C(NC1CCCC1)N1CC(=O)N2[C@H](C1)[C@@H](c1ccc(-c3cccnc3)cc1)[C@@H]2CO
  A: 0; B: 16; C: -2.1; D: -2.3
11	CN1C[C@@H]2[C@H](c3ccccc31)[C@H](CO)N2C(=O)C1CCCC1
  A: 4; B: 9; C: -3.0; D: 1.9
12	CC(C)NC(=O)N1CC2(C1)[C@@H](c1ccccc1)[C@H](CO)N2C(=O)C1CCC1
  A: 2; B: 1; C: -1.5; D: -2.3
13	O=C(C1CCCC1)N1CC(=O)N2[C@H](CO)[C@@H](c3ccc(Br)cc3)[C@H]2C1
  A: 0; B: 9; C: 1.5; D: -1.9
14	COc1ccc(-c2ccc3c(c2)[C@H]2[C@H](CCN2C(=O)NC2CCCC2)[C@H](CO)N3C)cc1
  A: -13; B: -45; C: 31; D: 26*
15	Cc1ccc(S(=O)(=O)Nc2ccc3c(c2)C(=O)N([C@H](C)CO)C[C@H](C)[C@H](CN(C)C(=O)CCC(F)(F)F)OCCCC[C@H](C)O3)cc1
  A: -3; B: -14; C: 2.4; D: 0.4
16	COc1ccc(S(=O)(=O)N(C)C[C@H]2Oc3c(NS(=O)(=O)c4cccs4)cccc3C(=O)N([C@@H](C)CO)C[C@@H]2C)cc1
  A: -5; B: 7; C: -0.3; D: -1.0
17	O=C1CN(Cc2ccccc2)C[C@H]2[C@@H](c3ccc(-c4ccccc4)cc3)[C@H](CO)N12
  A: 2; B: -8; C: -2.2; D: 4.3
18	CO[C@H]1CN(C)C(=O)c2ccc(NC(=O)C3CCCC3)cc2OC[C@H](C)N(C)C[C@@H]1C
  A: 0; B: 4; C: -0.5; D: -4.6
19	C/C=C/c1ccc([C@H]2[C@@H](CO)N(C(C)=O)[C@@H]2CN(CCOC)C(C)=O)cc1
  A: 2; B: 5; C: -5.2; D: -5.7
20	O=C(O)c1ccc(NS(=O)(=O)c2ccc3c(c2)C2C=CCC2C(c2ccccc2F)N3)cc1 (configuration not stated)
  A: 11; B: 13; C: -0.6; D: 3.9

Compound profiles (already shown):
`O=C(O)c1ccc(NS(=O)(=O)c2ccc3c(c2)C2C=CCC2C(c2ccccc2F)N3)cc1` (configuration not stated) as listed: Ecoli rRNA inh: 11; Ecoli rRNA inh OD600: 13; Ecoli rRNA inh RFP: -0.6; AF4-AF9 inh: 3.9
`O=S(=O)(c1ccc(F)cc1)N1[C@@H]2CNC[C@H]1C2c1ccc(-c2ccccc2)cc1` (some centres not stated) as listed: Ecoli rRNA inh: -57&-2; Ecoli rRNA inh OD600: -79&-9; Ecoli rRNA inh RFP: -11&3.9; AF4-AF9 inh: -9.2&-10

Following part:
Keys: A = Ecoli rRNA inh; B = Ecoli rRNA inh OD600; C = Ecoli rRNA inh RFP; D = AF4-AF9 inh
21	O=C(NC1CCC1)[C@H]1[C@H](CO)[C@H]2Cn3c(ccc(-c4ccccc4F)c3=O)[C@H]2N1Cc1ccccn1
  A: -1; B: 6; C: 5.8; D: -0.4
22	C[C@H]1CN([C@@H](C)CO)S(=O)(=O)c2ccc(-c3ccc(C#N)cc3)cc2O[C@H]1CN(C)CC1CC1
  A: 1; B: 2; C: 1.8; D: 4.8
23	COc1ccccc1NC(=O)N1CC(=O)N2[C@@H](CO)[C@@H](c3ccc(C#CC4CC4)cc3)[C@@H]2C1
  A: 1; B: -8; C: 3.2; D: 1.9
24	CCCN1C[C@@H](C)[C@@H](OC)CN(C)C(=O)c2cc(NC(=O)c3ccno3)ccc2OC[C@H]1C
  A: 2; B: -2; C: -0.7; D: 0.0
25	C[C@@H]1CN([C@H](C)CO)C(=O)c2cc(NC(=O)NC3CCCCC3)ccc2O[C@@H](C)CCCCO[C@H]1CN(C)S(=O)(=O)c1ccc(Cl)cc1
  A: -4; B: -3; C: -3.5; D: -3.5
26	O=S(=O)(c1ccccc1F)N1[C@@H]2CNC[C@H]1C2c1ccc(/C=C/c2ccccc2)cc1 (some centres not stated)
  A: -52&2; B: -74&-20; C: -9.1&-2.9; D: 7.4&1.3
27	CC(=O)N1[C@@H]2c3ccc(C4=CCCC4)c(=O)n3C[C@H]1[C@H](CO)[C@H]2C(=O)NC1CCC1
  A: 2; B: 2; C: -3.1; D: -1.6
28	O=C(c1ccc(C(F)(F)F)cc1)N1CCC(=O)N([C@H](COCc2ccccc2)Cc2ccccc2)CC1
  A: -26; B: -31; C: -6.0; D: -3.6
29	COc1ccc2c3c([nH]c2c1)[C@@H](CO)N(C(=O)Nc1ccc(F)cc1)CC31CN(S(=O)(=O)c2ccc(C)cc2)C1
  A: -1; B: 8; C: -1.9; D: -8.2
30	C[C@H]1CN([C@@H](C)CO)C(=O)Cc2cc(NC(=O)C3CCCCC3)ccc2O[C@@H]1CN(C)Cc1ccc(C(=O)Nc2ccccc2N)cc1
  A: -8; B: -10; C: -0.5; D: -10
31	CN(C[C@H]1[C@H](c2ccccc2)[C@@H](CO)N1Cc1ccccn1)S(C)(=O)=O
  A: 0; B: 2; C: -1.9; D: -3.5
32	C[C@@H](NC(=O)C[C@H]1CC[C@@H]2[C@@H](COc3ccc(NC(=O)C4CCOCC4)cc3C(=O)N2C)O1)c1ccccc1
  A: 3; B: 0; C: -2.9; D: -0.1
33	COc1cccc(S(=O)(=O)N2CC3(CCN(C)CC3)c3c([nH]c4cc(OC)ccc34)[C@H]2CO)c1
  A: 1; B: 3; C: -0.9; D: 12
34	C[C@H]1CN([C@@H](C)CO)C(=O)c2cc(N(C)C)ccc2O[C@H]1CN(C)Cc1ccc2c(c1)OCO2
  A: 1; B: 0; C: -0.3; D: 2.4
35	Cc1ccc(S(=O)(=O)N(C)C[C@H]2OCCCC[C@@H](C)Oc3ccc(NC(=O)c4ccncc4)cc3C(=O)N([C@H](C)CO)C[C@@H]2C)cc1
  A: -2; B: 7; C: 0.1; D: -2.4
36	CC(C)NC(=O)N1CCCCN2[C@H](CO)[C@H](c3ccc(C#CC4CC4)cc3)[C@@H]2C1
  A: 1; B: -12; C: -1.6; D: -0.1
37	CCS(=O)(=O)Nc1ccc2c(c1)C(=O)N(C)C[C@@H](OC)[C@H](C)CN(C(=O)COC)[C@H](C)CO2
  A: 2; B: 1; C: -0.6; D: -3.5
38	CN(C)CC(=O)N1[C@H](C#N)[C@H](c2ccccc2-c2ccc(C(=O)N(C)C)cc2)[C@@H]1CO
  A: 10; B: 11; C: -0.9; D: 3.2
39	Cc1noc(C)c1S(=O)(=O)Nc1ccc2c(c1)C(=O)N([C@H](C)CO)C[C@H](C)[C@H](CN(C)C)OCCCC[C@@H](C)O2
  A: 2; B: 0; C: -1.2; D: -4.3
40	COc1ccc(NC(=O)N2CC(=O)N3[C@H](CO)[C@H](c4ccc(C5=CCCC5)cc4)[C@H]3C2)cc1
  A: 0; B: -8; C: 1.2; D: 3.2

Four entries already listed, arranged by SMILES length, high to low:
Keys: A = Ecoli rRNA inh; B = Ecoli rRNA inh OD600; C = Ecoli rRNA inh RFP; D = AF4-AF9 inh
39	Cc1noc(C)c1S(=O)(=O)Nc1ccc2c(c1)C(=O)N([C@H](C)CO)C[C@H](C)[C@H](CN(C)C)OCCCC[C@@H](C)O2
  A: 2; B: 0; C: -1.2; D: -4.3
37	CCS(=O)(=O)Nc1ccc2c(c1)C(=O)N(C)C[C@@H](OC)[C@H](C)CN(C(=O)COC)[C@H](C)CO2
  A: 2; B: 1; C: -0.6; D: -3.5
40	COc1ccc(NC(=O)N2CC(=O)N3[C@H](CO)[C@H](c4ccc(C5=CCCC5)cc4)[C@H]3C2)cc1
  A: 0; B: -8; C: 1.2; D: 3.2
38	CN(C)CC(=O)N1[C@H](C#N)[C@H](c2ccccc2-c2ccc(C(=O)N(C)C)cc2)[C@@H]1CO
  A: 10; B: 11; C: -0.9; D: 3.2

Carrying on.
Keys: A = Ecoli rRNA inh; B = Ecoli rRNA inh OD600; C = Ecoli rRNA inh RFP; D = AF4-AF9 inh
41	COc1cccc(NC(=O)N2CC(=O)N3[C@H](CO)[C@H](c4ccc(C5=CCCCC5)cc4)[C@@H]3C2)c1
  A: -2; B: -33; C: 2.0; D: 11
42	CCC(=O)N1CC(=O)N2[C@@H](CO)[C@H](c3ccc(-c4ccncc4)cc3)[C@@H]2C1
  A: 2; B: -2; C: -1.0; D: -1.3
43	O=C(c1ccc(F)cc1)N1CC(=O)N2[C@H](CO)[C@@H](c3ccc(C#CC4CC4)cc3)[C@@H]2C1
  A: 13; B: -26; C: 7.3; D: 1.0
44	O=C(Nc1ccc(F)cc1)N1CC(=O)N2[C@@H](CO)[C@@H](c3ccc(C#CC4CC4)cc3)[C@@H]2C1
  A: 1; B: -3; C: 22; D: 8.3
45	O=C(C[C@@H]1C=C[C@H](NS(=O)(=O)c2ccc(F)cc2)[C@H](CO)O1)NCc1ccccc1F
  A: -2; B: 5; C: -4.2; D: -2.7
46	C[C@H](O)C#Cc1ccc([C@@H]2[C@@H](CO)N3CCCCN(S(=O)(=O)c4ccccc4)C[C@H]23)cc1
  A: 3; B: 6; C: 4.1; D: -5.5
47	N#C[C@@H]1[C@H](c2ccccc2C2=CCCCC2)[C@H](CO)N1C(=O)NC1CCCCC1
  A: -4; B: -26; C: -7.2; D: -2.1
48	COc1ccc(NC(=O)N(C)C[C@@H]2Oc3ccc(NC(=O)Cc4ccccc4)cc3CC(=O)N([C@@H](C)CO)C[C@H]2C)cc1
  A: -5; B: -5; C: -1.1; D: -2.9
49	O=C(C[C@H]1CC[C@H]2[C@@H](COC[C@@H](O)CN2CC2CCCC2)O1)NCC1CC1
  A: -4; B: 1; C: -7.9; D: -3.0
50	COc1cccc(-c2ccc([C@@H]3[C@@H](CO)N4C(=O)CNC[C@H]34)cc2)c1
  A: 2; B: -1; C: 0.8; D: -1.7
51	CO[C@H]1CN(C)C(=O)c2cc(NS(C)(=O)=O)ccc2OC[C@@H](C)NC[C@@H]1C
  A: 0; B: 0; C: -0.8; D: -3.7
52	CC(C)NC(=O)NCC[C@@H]1CC[C@H](NS(=O)(=O)c2ccccc2)[C@@H](CO)O1
  A: 1; B: 0; C: 0.3; D: 8.3
53	O=C(Nc1ccc2c(c1)[C@H]1C[C@H](CC(=O)N3CCOCC3)O[C@H](CO)[C@H]1O2)NC1CCCC1
  A: 0; B: 3; C: -2.3; D: -1.0
54	Cc1ccc(S(=O)(=O)N2[C@@H]3CNC[C@H]2C3c2ccc(-c3ccccc3C)cc2)cc1 (some centres not stated)
  A: -16&-54; B: -45&-81; C: 11&-12; D: -5.1&-3.5
55	C[C@H](CO)N1C[C@H](C)[C@H](CN(C)Cc2ccc(C(F)(F)F)cc2)OCCCC[C@H](C)Oc2ccc(NS(=O)(=O)c3ccccc3)cc2C1=O
  A: -3; B: -26; C: 16; D: 5.1
56	O=C(Nc1cc(F)ccc1F)N1CC(=O)N2[C@H](CO)[C@@H](c3ccc(-c4cccnc4)cc3)[C@H]2C1
  A: 5; B: 2; C: 0.1; D: -2.8
57	O=C1CN(S(=O)(=O)c2ccccc2)C[C@@H]2[C@H](c3ccc(C#Cc4ccccc4)cc3)[C@@H](CO)N12
  A: 3; B: -21; C: 18; D: -0.4
